VDR inh: Inhibitors of the vitamin D receptor (VDR): qHTS. 0.93% of 400,000 active. VDR-SRC2-3 peptide fluorescence polarization, 2 h. AID 504847, 2011. Vitamin D3 receptor (Homo sapiens), P11473. Potency, µM, for the others: max response, negative = inhibition, actives largely listed as inhibitors; active = well fitted inhibition curve with a large enough effect; inconclusive = small, poorly fitted or top-dose-only effect, or another doubt; inactive = no such curve, though single readings can be large or run the other way; also: series mostly up to about 120 µM
Target sequence (P11473 whole entry, looked up): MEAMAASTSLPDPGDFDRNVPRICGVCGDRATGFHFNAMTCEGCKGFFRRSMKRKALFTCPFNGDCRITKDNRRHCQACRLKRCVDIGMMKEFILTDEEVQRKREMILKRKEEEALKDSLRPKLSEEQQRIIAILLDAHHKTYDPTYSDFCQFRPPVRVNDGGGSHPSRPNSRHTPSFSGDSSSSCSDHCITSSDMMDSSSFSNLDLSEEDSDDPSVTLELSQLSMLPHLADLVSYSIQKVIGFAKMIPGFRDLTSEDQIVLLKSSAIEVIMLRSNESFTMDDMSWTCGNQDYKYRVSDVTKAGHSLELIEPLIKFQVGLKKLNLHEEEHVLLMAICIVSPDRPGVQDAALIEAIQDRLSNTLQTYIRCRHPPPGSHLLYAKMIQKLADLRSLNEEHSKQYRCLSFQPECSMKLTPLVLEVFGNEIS
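Compounds are added to VDR with labelled SRC2-3 coactivator peptide and held 2 h at room temperature. Inhibition of the VDR–peptide interaction is then read as a change in fluorescence polarization.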
Starred values were filed as active, the others as inactive; & = joins results of further samples. % is scaled to controls: 0 for no effect and ±100 for the full control effect; potency is read from the fitted curve at half-maximal effect.

`CCOc1ccc(Nc2c3ccccc3nc3ccccc23)cc1` gave VDR inh -3.8%.
`O=S(=O)(NCCc1ccncc1)c1cc(Br)ccc1F` gave VDR inh -4.5%.
Cc1cc(C(C#N)c2ccccc2)n2ncnc2n1 (stereo not drawn) was read as VDR inh -19.0%.
Cc1ccc(C)c(NC(=O)NCc2ccc3c(c2)CCN3C(=O)c2ccccc2)c1 was read as VDR inh 3.8%.
`Cc1ccc(Cl)cc1-n1nnc(-c2nsc(NC(=O)c3ccccc3Cl)n2)c1C` gave VDR inh -23.2%.
For COc1cccc(NC(=O)CN(C)C(=O)CSC(=S)N2CCCC2)c1 the results were VDR inh -11.5%.
CN(C)c1ccc(-c2cncnc2NCCc2cnc[nH]2)cc1 was read as VDR inh -4.9%.
Screening Cc1ccc(N(CC(=O)NCc2ccc(F)cc2)C(=O)c2ccco2)cc1C returned VDR inh -10.0%.
Screening O=S(=O)(c1ccc(Cl)nc1)N1CCc2ccccc21 returned VDR inh 2.9%.
Screening O=C(Nc1ccccc1N1CCCC1)C1CCN(S(=O)(=O)c2ccc(F)cc2)CC1 returned VDR inh -2.7%.
Screening O=C(CCNc1n[nH]c(=O)[nH]c1=O)N/N=C/c1ccc(C(F)(F)F)cc1 returned VDR inh -1.1%.
COC(=O)Cn1c(=O)c(=O)n(CC(=O)OC)c2ccccc21 was read as VDR inh -10.0%.

Continued (4 carried over from the part before).
Screening O=S(=O)(c1ccc(Cl)nc1)N1CCc2ccccc21 returned VDR inh 2.9%.
Screening O=C(Nc1ccccc1N1CCCC1)C1CCN(S(=O)(=O)c2ccc(F)cc2)CC1 returned VDR inh -2.7%.
Screening O=C(CCNc1n[nH]c(=O)[nH]c1=O)N/N=C/c1ccc(C(F)(F)F)cc1 returned VDR inh -1.1%.
COC(=O)Cn1c(=O)c(=O)n(CC(=O)OC)c2ccccc21 was read as VDR inh -10.0%.
Cc1cccc(-c2nc3cc(NC(=O)C4CCCO4)ccc3o2)c1 (stereo not drawn) was read as VDR inh -10.7%.
For COc1ccc(CNC(=O)COC(=O)c2sccc2C)cc1OC the results were VDR inh 11.3%.
`Cn1nc(C(=O)Nc2ccc(S(=O)(=O)N3CCCC3)cc2)ccc1=O` gave VDR inh -8.8%.
`COc1cc(NC(=O)CCc2c(C)nn(-c3ccc(N4CCOCC4)nn3)c2C)cc(OC)c1OC` gave VDR inh 4.4%&7.0%.
COc1ccccc1-c1cc(C(F)(F)F)nc(S(=O)(=O)CCCC(=O)Nc2ccc(F)c(Cl)c2)n1 was read as VDR inh inconclusive.
Screening Cc1nnc(NC(=O)CSCc2cc(=O)c3ccccc3[nH]2)s1 returned VDR inh 12.2%.
For CCn1c(=O)c2cc(C(=O)N(C)c3cc(Cl)c(OC)cc3OC)sc2c2ccccc21 the results were VDR inh -7.7%.
Cc1nn(-c2ccccc2)c(C)c1C(=O)OCC(=O)N(C)c1ccccc1 was read as VDR inh 2.0%.
For O=C(Nc1ccccc1)N(CCN1CCOCC1)Cc1ccccc1F the results were VDR inh 10.1%.
Screening COC(=O)c1ccc(COc2cc([N+](=O)[O-])cc3cccnc23)cc1 returned VDR inh 8.0%.
`COc1ccccc1C1=NOC(COC(=O)c2ccc(Br)cc2)C1` (stereo not drawn) gave VDR inh 11.8%.
O=C(O)CCCCOn1ccnc1 was read as VDR inh 2.5%.
O=[N+]([O-])c1ccc(N2CCSCC2)cc1 was read as VDR inh -3.6%.
For CCOc1ccc(N2CC(c3nc4ccccc4n3CCCOc3ccc(OC)cc3)CC2=O)cc1 (stereo not drawn) the results were VDR inh -7.1%.
Screening CCCOP(=O)(c1ccc(N(C)C)cc1)C(O)c1cc(OC)ccc1OC (stereo not drawn) returned VDR inh -6.1%.
Screening COc1cccc(/C=N/NC(=O)c2nnn(-c3nonc3N)c2C(C)C)c1OCc1ccc(F)cc1 returned VDR inh 6.3%.
`CSCC[C@H](NC(=O)[C@H](CCCNC(=N)N)NC(=O)[C@H](Cc1ccc(O)cc1)NC(=O)[C@@H]1CCCN1C(=O)CNC(=O)[C@H](CCC(=O)O)NC(=O)[C@H](CC(=O)O)NC(=O)[C@H](CCCCN)NC(=O)[C@H](CCCCN)NC(=O)[C@H](CCC(=O)O)NC(=O)[C@H](C)N)C(=O)N[C@@H](CCC(=O)O)C(=O)N[C@@H](Cc1cnc[nH]1)C(=O)N[C@@H](Cc1ccccc1)C(=O)N[C@@H](CCCNC(=N)N)C(=O)N[C@@H](Cc1c[nH]c2ccccc12)C(=O)NCC(=O)N[C@@H](CO)C(=O)N1CCC[C@H]1C(=O)N1CCC[C@H]1C(=O)N[C@@H](CCCCN)C(=O)N[C@@H](CC(=O)O)C(=O)O` gave VDR inh -2.3%.
For COc1cccc(NC(=O)CN(C)CC(=O)Nc2ccc(Br)cc2)c1 the results were VDR inh -10.0%.
For CCCn1nnnc1NCc1ccc(OC)cc1OC the results were VDR inh 10.4%.
CCS(=O)(=O)N1CCCC(C(=O)NCC2CCCO2)C1 (stereo not drawn) was read as VDR inh 10.9%.
Screening O=C(c1ccccc1S(=O)(=O)NCC(O)COc1ccc([N+](=O)[O-])cc1)N1CCCCC1 (stereo not drawn) returned VDR inh 28.3%.
CC(C)CC(=O)NCCCCc1ccccc1 was read as VDR inh -11.9%.
COCCn1c(C)cc(C(=O)COC(=O)C2CC(=O)N(CCc3ccc(OC)c(OC)c3)C2)c1C (stereo not drawn) was read as VDR inh -3.7%.
`CC1CN(Cc2cc(=O)n3ccsc3n2)CC(C)O1` (stereo not drawn) gave VDR inh -12.0%.

Gathered by group, the compounds so far with a nitro group on carbon (three)
Screening COC(=O)c1ccc(COc2cc([N+](=O)[O-])cc3cccnc23)cc1 returned VDR inh 8.0%.
O=[N+]([O-])c1ccc(N2CCSCC2)cc1 was read as VDR inh -3.6%.
Screening O=C(c1ccccc1S(=O)(=O)NCC(O)COc1ccc([N+](=O)[O-])cc1)N1CCCCC1 (stereo not drawn) returned VDR inh 28.3%.

The list goes on.
O=C(Cc1ccc(Br)cc1)NCCc1ccc(F)cc1 was read as VDR inh -28.2%.
Screening Cc1c(N2C(=O)/C(=C\c3ccccc3O)SC2=S)c(=O)n(-c2ccccc2)n1C returned VDR inh inconclusive.
`CCN(Cc1ccccc1)C(=O)c1cccc(S(=O)(=O)N2CCN(c3ccc(F)cc3)CC2)c1` gave VDR inh -13.9%.
CCC(=O)NCc1ccc2[nH]c(C)cc2c1 was read as VDR inh -8.3%.
Screening COc1cc(C(=O)N2CCN(Cc3ccccn3)CC2)cc(OC)c1OC returned VDR inh -7.7%.
Screening CCn1c(SCC(=O)Nc2ccc(N3CCOCC3)cc2)nnc1-c1ccc(OC)cc1 returned VDR inh -8.7%.
`NCCOc1ccc(C23CC4CC(CC(C4)C2)C3)cc1` gave VDR inh 3.5%.
`COc1cc(-c2nnc3sc(Cc4ccc(Cl)cc4)nn23)cc(OC)c1OC` gave VDR inh inconclusive.
For COc1cccc(N2CCN(C(=O)/C=C/c3ccco3)CC2)c1 the results were VDR inh -10.3%.
`O=S(=O)(c1ccccc1)N1CCN(S(=O)(=O)c2ccccc2)C1` gave VDR inh 0.4%.
Screening O=C(CSc1ccccc1F)NCC1(N2CCCCC2)CCCCC1 returned VDR inh -2.8%.
`CCOC(=O)c1csc(NC(=O)COc2ccc(Cl)cc2Cl)n1` gave VDR inh 1.8%.
For Cc1ccc(NC(=O)c2cnccn2)nc1 the results were VDR inh -9.3%.
`COc1ccc(NC(=O)c2sc3ncn(CC(=O)N4CCCCC4)c(=O)c3c2C)cc1OC` gave VDR inh 2.6%.
Screening O=C(c1ccc(Cl)cc1)c1cnc(Nc2ccccc2Cl)s1 returned VDR inh 2.0%.
CN(C)c1ccc(CN(Cc2ccco2)C(=O)c2ccco2)cc1 was read as VDR inh -17.6%.
Screening COC(=O)c1sc(S(=O)(=O)N2CCN(c3ccccc3F)CC2)c(C(=O)OC)c1C returned VDR inh 17.9%.
For O=C(NCc1ccccc1)c1ccc(S(=O)(=O)N2CCCc3ccccc32)cc1 the results were VDR inh 1.9%.
`Cc1ccc(-c2nn(Cc3ccccc3)cc2/C=C/C(=O)O)cc1` gave VDR inh -3.8%.
Screening C/C(=N/NC(=O)c1cc(C)[nH]n1)c1ccncc1 returned VDR inh 3.4%.
Screening O=C(c1cc(-c2ccccc2)n[nH]1)N1CCc2c([nH]c3ccccc23)C1c1ccccn1 (stereo not drawn) returned VDR inh 5.2%.
`CCOc1ccccc1CN1CCN(C2CCSCC2)CC1CCO` (stereo not drawn) gave VDR inh 6.8%.
`CCOC(=O)C(CCCCCOc1ccccc1[N+](=O)[O-])C(=O)OCC` gave VDR inh -20.4%.
Screening Cn1c(C(=O)NCc2ccc(F)cc2)cc2cc(S(=O)(=O)N3CCCCC3)ccc21 returned VDR inh 8.7%.
Cc1ccccc1-c1nnnn1C1CCS(=O)(=O)C1 (stereo not drawn) was read as VDR inh 12.9%.
Cc1ncc(C(=O)Nc2ccccc2)[nH]1 was read as VDR inh 11.6%.
`CC(=O)c1ccccc1NC(=O)C1CCCN(C(=O)c2ccc(Cl)cc2)C1` (stereo not drawn) gave VDR inh -18.4%.
For O=C(NC(=O)c1ccccc1F)OCc1ccc(Cl)cc1Cl the results were VDR inh -13.5%.
`CC(=O)N1CCc2c(sc3c2c(=O)n(Cc2ccccc2)c(=O)n3CC(=O)Nc2ccc(C)c(F)c2)C1` gave VDR inh -0.8%.
CC1CCCC(C)N1C(=O)c1ccc(S(=O)(=O)NCc2ccco2)cc1 (stereo not drawn) was read as VDR inh -14.9%.
For O=C(C=Cc1ccccn1)c1ccccc1O the results were VDR inh 56.2µM*.
Screening O=C(CSc1ccccc1)Nc1nnc(-c2ccco2)o1 returned VDR inh -1.5%.
Screening COc1ccc(C2CC(=O)Nc3cc4c(cc32)OCO4)c(OC)c1 (stereo not drawn) returned VDR inh -4.7%.
`Cc1ccccc1C(=O)c1cccn1CC(=O)NCCC1=CCCCC1` gave VDR inh -15.7%.
`CCOc1ccccc1-n1nnnc1SCC(=O)O` gave VDR inh -23.3%.
CCOc1ccccc1NC(=O)CSc1nc(=O)n(CCCN2CCOCC2)c2c1CCCC2 was read as VDR inh -19.7%.
Screening Cc1ccc2nc(-c3ccc(NC(=O)CN4CCN(C(=O)c5ccco5)CC4)cc3)sc2c1 returned VDR inh -12.0%.
O=C(CSc1ncccn1)n1c2c(c3ccccc31)CCCC2 was read as VDR inh 11.5%.
COc1ccc(S(=O)(=O)Nc2cccc3c2O[C@H](CN(C)S(=O)(=O)c2cccs2)[C@@H](C)CN([C@H](C)CO)C3=O)cc1 was read as VDR inh 3.5%.
For Cc1nc(-c2ccc(S(=O)(=O)NCc3ccc(OC(C)C)cc3)cc2)co1 the results were VDR inh 7.3%.
`COc1ccc(N(Cc2cccs2)C(=O)Nc2cccc(Cl)c2)cc1` gave VDR inh 13.1%.
Screening CCOC(=O)C1(Cc2ccccc2C(F)(F)F)CCN(C(C)CSC)CC1 (stereo not drawn) returned VDR inh -1.6%.
CC(=O)CSc1ccc(-c2nc3ccccc3[nH]2)cn1 was read as VDR inh -18.2%.
For COc1ccc(CCNC(=O)C2CCCN(c3ncnc4c3nc3n4CCCCC3)C2)c(OC)c1 (stereo not drawn) the results were VDR inh -4.2%.
For O=C(O)C1CCN(c2ncccn2)CC1 the results were VDR inh 1.1%.
`C=CCN(C(=O)CNS(=O)(=O)c1ccccc1)C(C(=O)NCCOC)c1cccnc1` (stereo not drawn) gave VDR inh 1.5%.
Screening CSc1nnc(C)c(=O)[nH]1 returned VDR inh -6.0%.
CN(CCCC1CCCC1)C(=O)CCc1nnc(-c2ccccc2)o1 was read as VDR inh 4.6%.
`COc1ccc(OCC(=O)NC(=S)NNC(=O)COc2ccc(Br)cc2Cl)cc1` gave VDR inh inconclusive.
Screening Cc1ccc(-n2nc(C)c3c(C)c(CCC(=O)NCCCOC(C)C)c(C)nc32)cc1 returned VDR inh 25.3%.
Screening Cc1cccc(OCC(=O)O/N=C(\N)c2ccc(Cl)cc2)c1 returned VDR inh -7.1%.
CN1/C(=C\C(=O)COC(=O)c2ccc(O)c(O)c2)C(C)(C)c2ccccc21 was read as VDR inh 15.2%.
CC1CCN(S(=O)(=O)c2ccc(C(=O)Nc3ccccn3)cc2)CC1 was read as VDR inh -3.4%.
For Cc1n[nH]c(C)c1S(=O)(=O)Nc1ccc2c(c1)OCCO2 the results were VDR inh 0.2%.
For CCC(Oc1ccccc1)C(=O)Nc1ccccc1C(=O)N1CCOCC1 (stereo not drawn) the results were VDR inh -17.7%.
Screening CCOC(=O)c1c(C)[nH]c(C(=O)COC(=O)COc2ccc(OC)cc2)c1C returned VDR inh -14.8%.
COc1ccc(S(=O)(=O)N2CCC(C(=O)NCCc3ccccc3)CC2)cc1 was read as VDR inh -9.5%.
`Cc1ccc2oc3ccccc3c(=O)c2c1` gave VDR inh -1.7%.
`C[N+]1(CCCOC(=O)C2(c3ccccc3)CCCC2)CCOCC1` gave VDR inh 3.0%.
For Cc1ccc(NC(=O)C(C)Sc2nnc(C)n2CC2CCCO2)cc1 (stereo not drawn) the results were VDR inh 4.3%.
`O=C(Cn1c(=O)n(CCCC(=O)NC2CCCC2)c(=O)c2ccccc21)NCCC1=CCCCC1` gave VDR inh 21.5%.
For O=S(=O)(Nc1ccc(C(F)(F)F)cc1)c1ccc2c(c1)OCCO2 the results were VDR inh 4.5%.
For Cc1ccc(OCCCCCCN2CCNCC2)c(Br)c1 the results were VDR inh -13.2%.
Oc1cc(-n2cccn2)c(O)cc1-n1cccn1 was read as VDR inh 5.6%.
Screening CC(=O)Nc1cccc(-c2csc(Nc3cc(C)ccn3)n2)c1 returned VDR inh -2.5%.
COc1ccc(/C=C2\SC(=Nc3ccccc3OC)NC2=O)cc1 was read as VDR inh 22.3%.
Screening CCO[C@H]1OC(C(=O)N2CCCCCCC2)=C[C@@H](c2ccccc2)[C@@H]1CCCO returned VDR inh 4.5%.
For Cc1ccc2[nH]c(C(=O)N3CCN(C=O)CC3)cc2c1 the results were VDR inh -27.2%.

High-throughput results (PubChem BioAssay)

Some of the compounds tested; count on the stated rates, not on these rows.
